gsp ag: gsp mutant agonism | 340,000 compounds, 0.13% hits | Potency, µM (titrated, usually from 76.9 µM), for inactives: top-dose activation (cAMP increase), usual class: activators | gsp mutant cells, cAMP HTRF, 30 min; control for the full effect not named in the record; active = well fitted activation curve with a large enough effect; inconclusive = small, poorly fitted or top-dose-only effect, or another doubt; inactive = no such curve, though single readings can be large or run the other way; cell line not stated here;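 further: phosphodiesterase inhibitor Ro 20-1724 added with compounds to block cAMP breakdown; potency means the concentration at half of the fitted maximal effect; nearly all actives have a fitted effect of over 60% in size; about a fifth of the inactives were tested at one dose only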
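Cells stably selected in G418 were plated at 2000/well, grown 16-24 hr, then given compounds in DMSO with the PDE inhibitor […] (300 uM solution added) for 30 min at 37C; cAMP was read by HTRF.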
ClpP mod: qHTS Assay for Activators of ClpP | Potency, µM (highest dose often 57.5 µM), for the others: top-dose activity change, negative = active | 340,000 compounds, 1.9% hits | ATP-dependent Clp protease proteolytic subunit (Bacillus subtilis (strain 168)), P80244 | purified B. subtilis ClpP, FRET peptide cleavage, 20 min; active = well fitted falling curve with a large enough effect; inconclusive = small, poorly fitted or top-dose-only effect; inactive = no such curve, though single readings can be large or run the other way; further: potency means the concentration at half of the fitted maximal effect; the source files actives as falling curves though it sought activators and does not explain the sign; nearly all actives have a fitted effect of over 65% in size; many hits overshoot -100%
Target sequence (P80244 whole entry, looked up): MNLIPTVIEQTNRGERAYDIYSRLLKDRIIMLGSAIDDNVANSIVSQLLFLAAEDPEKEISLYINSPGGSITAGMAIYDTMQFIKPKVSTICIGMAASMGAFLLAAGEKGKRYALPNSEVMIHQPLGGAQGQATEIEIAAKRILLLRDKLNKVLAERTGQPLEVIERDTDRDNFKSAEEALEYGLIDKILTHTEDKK
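ClpP 10 microg/mL final, pH 8 Tris/KCl buffer with BSA, glycerol, Tween-20; compound pinned in; FRET-FV substrate; RT 20 min; Ex320/Em430; ΔFRET vs ADEP 5.8 microM, DMSO, no enzyme.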
Sfp PPTase inh: blocks B. subtilis Sfp PPTase activity; Potency, µM, inactives show max response, negative = inhibition, hits mostly inhibitors; 310,000 compounds, 3.5% hits; Q9F4F7; Biochemical Sfp PPTase activity, qHTS; AID 1490; active means well fitted inhibition curve with a large enough effect; inconclusive means small, poorly fitted or top-dose-only effect, or another doubt; inactive means no such curve, though single readings can be large or run the other way;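 further: the enzyme is Sfp with the accession as filed and its product quenches rhodamine fluorescence; potency means the concentration at half of the fitted maximal effect; 0% = enzyme reaction without inhibitor and -100% = no enzyme wells; top concentration of the series not given in the record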
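Buffer: 50 mM Hepes-Na pH 7.6, 10 mM MgCl2, 0.01% Nonidet P-40, 0.01% BSA. Enzyme 15 nM, pre-exposed to compound 15 min; substrates then added and fluorescence change tracked over 30 min.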
CtBP-E1A blk: inhibitors of CtBP/E1A interaction. activity change, % (test concentration not listed). AlphaScreen GST-E1A/His-CtBP binding, 1536-well; active compounds read low; control for the full effect not named in the record. 340,000 compounds, 0.49% hits; in the data active means activity change below about -65%; inconclusive means about -30% to -65%; inactive means above about -30%; further: on the % scale 0 is the no-effect control and ±100 the full control effect
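GST-E1A and His-tagged CtBP (125 nM each as 5X stock) were preincubated with pin-transferred compound for 2 h at 37 °C in the dark, then glutathione donor and nickel acceptor beads were added for 1 h before AlphaScreen reading.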
Menin MLL FP FL: inhibitors of human menin-MLL interaction, wild-type MLL peptide; Fluorescence polarization, fluorescein-MLL peptide displacement from menin; FP activity change, % at 61.4 µM; 290,000 tested, under 10 active; AID 1766; inconclusive = falling polarisation curve, or a change in total fluorescence; inactive = total fluorescence flat and polarisation flat or rising; no compound was filed as active; the % refers to the polarisation; negative = inhibition;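 further: % of control where 0% means no effect; inhibitors lower the polarisation; unlabelled MLL peptide was the positive control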
TRPV1 PAM: human TRPV1 potentiation | Q8NER1 | TRPV1-expressing cells, Fluo-8 calcium influx, capsaicin EC20 potentiation; host cell line not named in the record; control for the full effect not named in the record | potentiation, % at 8.33 µM | 320,000 compounds, 0.02% hits | AID 540277; active means potentiation above 80%; inconclusive means 30% to 80%; inactive means below 30%; further: 0% is about no effect
Target sequence (Q8NER1 whole entry, looked up): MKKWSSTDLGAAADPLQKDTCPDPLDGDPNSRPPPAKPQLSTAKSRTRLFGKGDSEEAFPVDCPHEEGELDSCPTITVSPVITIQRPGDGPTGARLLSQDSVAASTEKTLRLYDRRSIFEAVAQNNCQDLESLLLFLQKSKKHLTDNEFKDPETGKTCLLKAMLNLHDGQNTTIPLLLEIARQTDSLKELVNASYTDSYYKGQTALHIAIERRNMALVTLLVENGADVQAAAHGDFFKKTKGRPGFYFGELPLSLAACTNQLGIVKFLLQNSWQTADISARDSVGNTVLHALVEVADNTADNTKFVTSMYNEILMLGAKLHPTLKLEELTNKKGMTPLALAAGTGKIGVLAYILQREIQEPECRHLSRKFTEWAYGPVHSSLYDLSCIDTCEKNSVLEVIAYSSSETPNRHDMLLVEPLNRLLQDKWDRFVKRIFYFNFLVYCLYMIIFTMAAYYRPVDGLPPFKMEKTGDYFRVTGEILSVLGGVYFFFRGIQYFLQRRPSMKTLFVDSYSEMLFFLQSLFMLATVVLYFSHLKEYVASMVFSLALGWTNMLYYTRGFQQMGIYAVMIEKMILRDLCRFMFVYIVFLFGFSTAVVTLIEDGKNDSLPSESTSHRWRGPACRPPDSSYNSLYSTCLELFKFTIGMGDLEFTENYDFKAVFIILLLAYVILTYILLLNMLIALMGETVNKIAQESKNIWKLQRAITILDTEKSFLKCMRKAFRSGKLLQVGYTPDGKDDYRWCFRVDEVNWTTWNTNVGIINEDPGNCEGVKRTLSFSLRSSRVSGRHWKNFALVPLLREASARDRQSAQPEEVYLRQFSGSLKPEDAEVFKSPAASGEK
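Fluo-8 calcium influx in TRPV1-expressing cells, kinetic read (ex 480/em 520 nm). Compound added and read 3 min for agonist activity, followed by capsaicin at EC20 final and 2 min further read for enhancement.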
gsp antagonist: gsp mutant antagonism. gsp-mutant cells, cAMP HTRF, 30 min; control for the full effect not named in the record. Potency, µM (highest dose often 76.9 µM), without a hit: at the top dose activity change, negative = inhibition, most hits filed as inhibitors. 340,000 compounds, 0.4% hits; active = falling curve of any shape with a large fitted effect; inconclusive = falling curve, mostly with a smaller effect; inactive = flat or rising curve; cell line not stated here;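 further: intracellular cAMP measured with PDE inhibitor Ro 20-1724 present during compound exposure; potency means the concentration at half of the fitted maximal effect; on the % scale 0 is the no-effect control and ±100 the full control effect; nearly all actives have a fitted effect of over 65% in size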
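Measurement of cellular cAMP by homogeneous time-resolved fluorescence following a 30 min compound exposure at 37C. The PDE inhibitor […] was present throughout; the assay buffer was DPBS with 0.05% BSA and 0.005% Tween 20.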
An asterisk follows results filed as active; u = inconclusive; x = not tested or not shown; & = joins results of further samples; [ ] = dose if it differs, or a comment.

Fields: gsp ag, ClpP mod, Sfp PPTase inh, CtBP-E1A blk, Menin MLL FP FL, TRPV1 PAM, gsp antagonist
- COc1ccc(C2=CC(=O)C[C@H](c3ccc(OC)c(OC)c3)C2)cc1
  x, -3.8%, x, 4, x, -21, u
- CCCN1C(=O)c2cc(C(=O)Nc3ccccc3CC)ccc2C1O (stereo not drawn)
  -54%[inhibitor], 1.0%, 17%, 2, 1.8, 12, 6%
- Cc1sc(NC(=O)c2cccc([N+](=O)[O-])c2)c(C(N)=O)c1-c1ccc(C(C)(C)C)cc1
  -22%, 2.0%, -7%, -1, -1.4, 2, 2%
- CCOc1cc(C(=S)N2CCCCC2)ccc1OS(=O)(=O)c1ccc(Cl)cc1
  3%, 0.0%, 13%, -14, 5.5, 1, -17%
- CCn1ncc(C(=O)Nc2ccc(F)cc2)c1C
  u, x, x, 3, x, x, 8%
- O=C(Cn1cnc2ccccc21)c1ccc(Br)cc1
  18%[15.4 µM], -2.1%, -3%, -2, 1.4, 26, 2%
- CC1(C)CC(=O)C/C(=N\NC(=O)C2C3CCCCC32)C1 (stereo not drawn)
  9%[15.4 µM], x, 15%, 4, -0.2, 7, 15%
- Cc1cccc2c1NC(C)CC2C (stereo not drawn)
  -12%, -7.0%, -6%, -10, -3.4, 0, -8%
- COc1ccc(C2CC(c3cccs3)=NN2C(=O)CSc2nc3c(cnn3-c3ccccc3)c(=O)[nH]2)cc1 (stereo not drawn)
  -45%[inhibitor], 4.0%, -5%, 0, 0.7, 20, -11%
- COc1cc(C(=S)N2CCOCC2)ccc1OC(=O)c1ccccc1
  0%, 0.1%, -3%, 4, 2.1, -23, 4%
- CCOC(=O)c1cc(C#N)c(=S)[nH]c1C
  u, -0.7%, u, -4, 3.5, 14, -7%
- COc1cc(NC(=O)C(C)(C)C)c(C(=O)OCC(=O)Nc2cc(C)on2)cc1OC
  4%, -4.5%, x, -22, x, x, x
- CCOC(=O)CNc1ccc2c(c1)OCO2
  10%, 0.9%, 20µM*, -10, u, 9, -14%
- COc1cccc(N2CCN(C(=O)c3cccc(NC4=NC5CS(=O)(=O)CC5S4)c3)CC2)c1 (stereo not drawn)
  -57%[inhibitor], -1.4%, 12%, 4, 0.1, -6, 9%
- CC(C)(C)OC(=O)N1CCC(CC2CC(c3ccccc3)=NO2)(C(=O)NCc2ccccc2)CC1 (stereo not drawn)
  8%, -0.2%, x, 0, x, -1, -21%
- CC(C)[C@H](NC(=O)OCc1ccccc1)C(=O)OCC(=O)NCc1ccco1
  15%, x, x, -4, x, x, u
- COc1ccc(NC(=O)C[C@H]2C(=O)N(CCc3ccccc3)C[C@@H]2c2ccc(OC)cc2)cc1
  u, -2.6%, x, -7, x, x, x
- N#CC(C#N)=C/C=C(\Nc1ccc(Cl)cc1)c1ccc(Cl)cc1
  -4%, -18%, 4%, x, u, -2, 6%
- Cc1ccc(CSCCNC(=O)CCSc2ccccc2)cc1
  4%, -0.1%, 4%, -1, 5.4, -7, -8%
- O=C(Nc1cccc(-c2cn3ccccc3n2)c1)c1cccs1
  -5%, 4.5%, 0%, -18, 0.0, 2, 6%
- O=S(=O)(/N=C(/NNS(=O)(=O)c1ccccc1)c1ccccc1)c1ccccc1
  -49%, 0.9%, 0%, 2, -0.8, -7, 6%
- Cc1cc(OCC(O)CN2CCN(C)CC2)ccc1C(C)C (stereo not drawn)
  13%&1%, 0.5%, 14%, 4&0, 4.7, -10, 12%&2%
- O=C(NCc1nnc(SCC(=O)N2CCC(Cc3ccccc3)CC2)o1)c1ccccc1F
  -64%[inhibitor], -0.7%, 0%, 3, -3.5, 11, -10%
- O=C(O)CN1C(=O)C(=O)N(Cc2ccc(C(F)(F)F)cc2)C1=O
  10%, 0.7%, 11%, 20, -0.1, -3, -9%
- Cc1ccc(Cl)cc1NC(=S)N(Cc1ccccc1)Cc1cccnc1
  3%[15.4 µM], -3.7%, -2%, 0, -0.5, -2, -19%
- CC1(C)Cc2cccc(C(=O)Nc3ccc(Cl)cc3)c2O1
  27%, -6.9%, -3%, x, 1.4, -1, u
- CN(C(=O)c1sc2nc(N3CCCC3)c3c(c2c1N)CC(C)(C)OC3)c1ccccc1
  0%, u, -22%, x, x, 17, -1%
- O=C(CSc1nc2nccnc2c(=O)n1Cc1cccs1)Nc1ccccc1F
  u, 1.5%, 9%, -4, 2.2, -1, -6%
- CS(=O)(=O)N(CC(=O)Nc1ccccc1Sc1ccccc1)c1cccc(Br)c1
  0%, -1.2%, 11%, 0, -0.2, 6, -23%
- O=C(Cn1nc(Cl)nc1Cl)c1ccc2c(c1)OCCO2
  19%, -15%, 6%, -15, 2.4, -2, 1%
- Cn1c(N2CCOCC2)nc(-c2ccccc2)c1-c1ccccc1
  -28%, 11µM*, 1%, 15, 2.5, 3, 0%
- C/C(=N/NC(=O)CNC(=O)c1ccco1)c1ccco1
  -35%[inhibitor], 1.0%, 9%, 1, 1.7, -4, 12%
- Cc1ccc(C(C)C)cc1-n1nnc(-c2cccc(Cc3ccc4ccccc4c3)c2)c1C(C)O (stereo not drawn)
  6%, -6.1%, x, 4, x, x, x
- Cc1ccc(OCCN(C)C)c([N+](=O)[O-])c1
  -2%, -2.8%, -1%, -3, 5.8, -13, 10%
- Cc1cc(NC(=O)CSc2nnc(-c3ccco3)n2CC2CCCO2)no1 (stereo not drawn)
  4%, 0.6%, -3%, 7, 3.7, 0, 5%
- O=C(CC1C(=O)NCCN1Cc1ccc(-c2ccccc2)cc1)NCc1ccncc1 (stereo not drawn)
  -57%, -10%, 4%, x, 0.4, -7, -4%
- CCOC(=O)N1CCN(C(=O)CSCC(=O)Nc2nc(-c3ccc(-c4ccccc4)cc3)cs2)CC1
  -59%[inhibitor], -8.9%, 7%, 3, -4.3, 29, 25µM*
- Cc1ccccc1CNS(=O)(=O)c1ccc2c(c1)OCCO2
  -19%, -2.7%, 4%, 3, 0.0, u, -21%
- S=C(NCc1ccncc1)Nc1ccc(Br)cc1
  -10%[15.4 µM], -0.6%, 10%, 1, 1.1, -18, -14%
- Cc1ccc(NC(=O)Cc2noc3ccccc23)cc1
  u, 1.4%, 13%, 6, 1.0, -4, 0%
- CC(C)c1ccc(NC(=O)CN2C(=O)NC(Cc3c[nH]c4ccccc34)C2=O)cc1 (stereo not drawn)
  0%, 1.5%, x, -2, x, 20, -3%
- COC(=O)c1sccc1NC(=O)CSc1cccc(Cl)c1Cl
  -15%, -2.5%, -2%, 42, 4.4, -10, 2%
- CC(C)[C@H](NC(N)=O)C(=O)Nc1cccc(S(=O)(=O)NC2=NCCCCC2)c1
  -29%, -0.8%, x, 9, x, -3, -2%
- CC(=O)Oc1ccc(C(=O)Nc2cccc(C(=O)c3cccc(NC(=O)c4ccc(OC(C)=O)cc4)c3)c2)cc1
  u, -5.5%, -23%, -18, 4.9, -7, -7%
- CCc1ccccc1NC(=O)c1sc2nc(C)cc(C)c2c1N
  9%[15.4 µM], 32µM*, 16%, 3, 1.4, -5, 1%
- CCC1=NN(C(=O)c2ccc(C)cc2)C(O)(c2ccc(Br)cc2)C1 (stereo not drawn)
  -19%, 0.9%, 13%, -3, 9.5, -3, -16%
- CCOc1ccc(/C=C/C(O)=C2/C(=O)N(C)C3(C)CC2c2ccccc2O3)cc1OC (stereo not drawn)
  -3%[15.4 µM], x, -10%, 9, -0.3, 5, -4%
- Cc1oc(-c2cccs2)nc1CNC[C@H]1O[C@@H](n2cnc3c(N)ncnc32)[C@H](O)[C@@H]1O
  x, 3.9%, x, 5, x, x, 10%
- O=C(NC(=S)NC1CCSC1=O)c1ccccc1Cl (stereo not drawn)
  -19%, -1.4%, 7%, 3, 1.6, -3, 8%
- COc1ccccc1CNC(=O)C(=O)NCC1OCCN1S(=O)(=O)c1cccs1 (stereo not drawn)
  9%, -0.4%, 2%, 3, 4.0, -7, -8%
- CC1CCCN(CCCNC(=O)c2cc3c(s2)-c2ccccc2OC3)C1 (stereo not drawn)
  u, x, 0%, 8, -0.1, 23, 11%
- CCN(CC)C(=O)CSc1nnc(-c2ccccc2)n1-c1ccccc1
  u, 0.4%, 19%, -1, -2.0, -3, 1%
- CC(C)CC(=O)NC(=S)Nc1ccc(S(=O)(=O)N2CCN(C)CC2)cc1
  1%, -4.6%, -2%, 1, 3.2, 15, 4%
- CCOc1ccc(NS(=O)(=O)c2cc(NC(=O)CCC(=O)c3cccs3)ccc2Cl)cc1
  -18%, x, 9%, -20, -0.1, 2, -24%
- CC1CCN(S(=O)(=O)c2ccc3c(c2)CCN3C(=O)CCC(=O)O)CC1
  -6%, 1.8%, 12%, 3, 0.2, -16, -3%
- N#CCC(=O)NNC(=S)Nc1ccccc1C(F)(F)F
  17%[15.4 µM], x, 28%, 0, -5.6, 4, x
- O=C(NCc1ccc(F)cc1)c1ccc(CS(=O)(=O)c2ccc(Br)cc2)o1
  -1%, -3.8%, 16%, x, -2.1, 4, -10%
- CCOc1ccc2nc(/N=C/c3nc(-c4ccccc4)oc3O)sc2c1
  -6%, -4.6%, -7%, 1, u, -5, 1%
- C=CCn1c(SCCOc2ccccc2)nnc1C(C)NC(=O)c1ccccc1 (stereo not drawn)
  5%, 1.2%, 8%, 5, 0.9, 19, -9%
- O=C(Nc1ccc(F)cc1)Nc1nnc(-c2ccccc2)o1
  -61%[inhibitor], x, 15%, 3, 0.1, -5, 11%
- CN(c1ccc(C(=O)N2CCCCC2)cc1)S(C)(=O)=O
  -40%[inhibitor], -1.7%, 6%, -13, -0.7, 6, 11%
- Cc1cc([N+](=O)[O-])nn1CCCC(=O)Nc1sc2c(c1C(N)=O)CCCC2
  16%[15.4 µM], -9.8%, 18%, 4, 0.3, -2, 11%

Sfp PPTase inh: entries above that show a hit.
smiles	gsp ag	Sfp PPTase inh	CtBP-E1A blk	Menin MLL FP FL	gsp antagonist
CCOC(=O)CNc1ccc2c(c1)OCO2	10%	20µM*	-10	u	-14%

Screening data: PubChem, National Center for Advancing Translational Sciences (NCATS)

Rows are unselected; any-hit rate near 5.3%.
